# Bioassay records deposited in PubChem BioAssay by several laboratories.
# HNF4A DNA FP: change in binding of human HNF4 alpha to DNA. 360,000 compounds, 0.3% hits. P41235. AID 1224865. HNF4a-FITC DNA binding, fluorescence polarization, 1 h. activity change, % at 10 µM; in the data active = activity change above about 30%, passing the limit was not always enough;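 also: controls were the assay level and a saturating level of protein; the project sought stronger binding though the title names inhibitors; some compounds called inactive have numbers as strong as hits; positive values seem to mean higher polarization but the record does not say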
# Target sequence (P41235 whole entry, looked up): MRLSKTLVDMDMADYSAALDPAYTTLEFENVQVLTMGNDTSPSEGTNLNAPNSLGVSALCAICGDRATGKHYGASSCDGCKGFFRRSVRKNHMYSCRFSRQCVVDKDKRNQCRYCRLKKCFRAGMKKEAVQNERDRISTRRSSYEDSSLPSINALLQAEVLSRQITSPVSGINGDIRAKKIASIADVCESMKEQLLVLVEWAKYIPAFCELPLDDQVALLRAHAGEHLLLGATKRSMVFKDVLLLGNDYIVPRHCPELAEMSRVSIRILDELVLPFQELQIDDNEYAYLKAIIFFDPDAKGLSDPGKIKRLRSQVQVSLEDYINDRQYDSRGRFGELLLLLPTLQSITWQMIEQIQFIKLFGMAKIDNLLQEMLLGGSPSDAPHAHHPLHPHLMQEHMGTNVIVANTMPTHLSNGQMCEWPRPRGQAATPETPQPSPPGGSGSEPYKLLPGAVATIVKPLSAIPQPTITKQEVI
# RanGTP-Imp inh: inhibitors of RanGTP-importin-beta interaction, primary screen, biochemical, FRET, CFP-Ran, YFP-importin-beta, homogeneous; cell-free CFP-Ran/YFP-importin-beta FRET ratio; inhibition, % (concentration not given with the values); 300,000 compounds, 1.1% hits; AID 2216;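 active = most replicates above 15%; inconclusive = exactly half above 15%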;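 also: 0% = DMSO wells and 100% = Ran loaded with GDP instead of GTP; wells of about 40 µL received 100 nL stock; the first replicate is given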
# LANA-H2A inh: blocks KSHV LANA binding to histone H2A/H2B | Q9QR71 | cell-free LANA-H2A/H2B peptide, fluorescence polarization | inhibition, % (concentration not given with the values) | 320,000 compounds, 0.6% hits | AID 2629; in the data active = inhibition mostly above about 10%, no sharp cut-off; inactive = mostly below about 6.7%;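 also: stock transfer was 7.5 nL into about 10 µL; 0% = median of vehicle wells and 100% = median of positive control wells; one replicate is shown; the record names a cut of 25% in any replicate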
# Vif TR-FRET: HIV-1 Vif–A3G interaction blockers – biochemical, TR-FRET, GST-Vif 1-94, biotin-A3G peptide, dose response retest, primary screen (AID 1117319) | inhibition, %; hits with a dose series show IC50 in µM | TR-FRET GST-Vif / biotin-A3G peptide binding; higher % means a stronger effect; test concentration not given here; strong numbers were not always called active | 260,000 compounds, 0.57% hits;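 active = above the screen mean plus three standard deviations and confirmed in dose response; inconclusive = results disagree or hit not tested in dose response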;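 also: Vif residues 1-94 fused to GST binding biotinylated APOBEC3G peptide 110-148; 0% = full assay without inhibitor and 100% = GST in place of GST-Vif; retest series ran down from 100 µM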
# ALR H2O2 inh: human ALR oxidase inhibition via reduced H2O2. AID 485317. purified ALR, DTT oxidation, H2O2 HRP-luminol luminescence. P55789. 290,000 compounds, 3.8% hits. inhibition, % (no concentration beside the values);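 active = mean and each replicate at 75% or more; inconclusive = only one of the two met; inactive = neither met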;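 also: stock transfer was 7.5 nL into about 7.5 µL; 0% = neutral wells and 100% = wells with inactivated enzyme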
# Target sequence (P55789 whole entry, looked up): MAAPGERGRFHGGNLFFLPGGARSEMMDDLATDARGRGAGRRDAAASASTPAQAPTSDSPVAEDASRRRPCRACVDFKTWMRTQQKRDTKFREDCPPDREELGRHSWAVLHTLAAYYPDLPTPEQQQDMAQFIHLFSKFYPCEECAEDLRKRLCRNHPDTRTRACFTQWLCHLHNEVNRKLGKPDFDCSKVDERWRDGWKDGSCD
# Beta2AR agonist: human beta-2 adrenergic receptor agonism by FAP; P07550; Am2.2-beta2AR cells, FAP receptor internalization, flow cytometry; reference of the scale not given here; response, % (test concentration not listed); 340,000 compounds, 0.43% hits;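 active = response above a set limit, near 3 SD of response in nonfluorescent compounds, cut at about 42% in these data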;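 also: stock transfer was 100 nL into about 11 µL; a reference agonist was the positive control; negative values mostly stem from fluorescent compounds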
# Calb FLC: affects C. albicans growth with fluconazole; 300,000 compounds, 0.57% hits; AID 1979; C. albicans CaCi-2 (fluconazole-resistant clinical isolate) + fluconazole, Alamar Blue growth, 48 h; growth inhibition, % (test concentration not listed);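 active = most replicates above 75%; inconclusive = exactly half above 75%; inactive = most below 75%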;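 also: all wells also contain fluconazole at 8 µg/ml as a sub-toxic cotreatment; 0% = median of DMSO wells and 100% = median of geldanamycin control wells; wells of about 8 µL received 7.5 nL stock; the first replicate is given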
# * marks the source's active call; other numbers are inactive results; u = inconclusive; x = not tested or not shown; & = joins results of further samples.
SMILES,HNF4A DNA FP,RanGTP-Imp inh,LANA-H2A inh,Vif TR-FRET,ALR H2O2 inh,Beta2AR agonist,Calb FLC
Cc1ccnc(NC(=O)Cn2c(=O)oc3ccccc32)c1,-2.5,-1.5,0.1,x,1,3,2
CC[C@@H](C)[C@@H](C(=O)N1CCN(C(=O)OC(C)(C)C)CC1)n1cc(CCC(=O)O)nn1,2.7,-3.2,-3.7,11%,-7,-2,3
C#CC(C)OC(=O)Nc1cnccc1C(F)(F)F (stereo not given),0.8,-2.6,9.7,31%,x,1,-20
S=C(NN=C(C1CC1)C1CC1)Nc1ccccc1,1.2,u,-4.8,u,97*,-5,-15
COCC(=O)N(Cc1cc2cc(OC)ccc2[nH]c1=O)c1ccccc1,2.0,2.2,-1.6,-2%,-19,0,-12
Cc1ccc(-n2nc(C(=O)N3CCN(C)CC3)c3c4ccccc4n(C)c3c2=O)cc1,-0.4,-4.5,-0.9,x,1,0,-6
Cc1ccc(Cl)cc1N1CCN(C(=O)c2ccc(NS(=O)(=O)c3c(C)noc3C)cc2)CC1,-2.5,5.0,3.5,u,4,-2,10
CCOC(=O)c1ccc(NC(=S)NN)cc1,-3.1,-0.8,-2.5,6%,47,-5,4
COc1ccc(/C=N/NC(=O)c2[nH]c3ccc(Cl)cc3c2-c2ccccc2)c(C(=O)O)c1OC,-2.0,-1.7,3.8,-12%,98*,-6,20
CCN(CC)C(=O)CC(c1ccc(N(C)C)cc1)c1c(O)cc(OC)cc1OC (stereo not given),0.0,1.4,0.7,4%,u,3,-2
Cc1cc(C)c(NC(=O)C(C)N2CCCCCC2)c(C)c1 (stereo not given),-0.1,-2.4,2.6,x,-7,-3,13
Cc1ccc(-n2c3nc(=O)[nH]c(=O)c-3cc3cc([N+](=O)[O-])ccc32)cc1,-4.2,11,x,x,x,51*,-2
O=C(CC1CCCC1)NNC(=O)c1ccc(F)cc1,0.7,x,-2.4,-2%,2,-7,-4
O=S(=O)(NC1CCCCC1Sc1ncccn1)c1ccc(Cl)cc1 (stereo not given),2.1,5.6,2.3,x,0,6,-21
O=C(Oc1ccccc1)c1cccc(COC(=O)c2cnccn2)c1,-3.2,3.7,2.7,4%,-3,7,4
CCOc1cc(/C=N/NC(=O)c2ccncc2)ccc1OS(C)(=O)=O,-0.1,0.1,0.3,7%,2,18,1
CCn1c(=O)c([N+](=O)[O-])c(N2CCN(Cc3ccc4c(c3)OCO4)CC2)c2ccccc21,-0.1,1.8,-2.8,0%,-6,4,-12
COc1ccc(C2C(C#N)=C(N)OC3=C2C(=O)CC(C)(C)C3)cc1 (stereo not given),-2.6,-2.1,3.5,6%,-6,-1,-1
C=CCSC1=N/C(=C\c2ccc(C(=O)O)cc2)C(=O)S1,-1.1,6.7,11,-16%,7,-5,-7
Cc1ccccc1C(=O)c1cccn1CC(=O)NCc1ccccc1Cl,-0.5,-0.9,-4.3,-1%,-2,7,-6

# 2 of the compounds above, bar-delimited:
structure | HNF4A DNA FP | RanGTP-Imp inh | LANA-H2A inh | Vif TR-FRET | ALR H2O2 inh | Beta2AR agonist | Calb FLC
C#CC(C)OC(=O)Nc1cnccc1C(F)(F)F (stereo not given) | 0.8 | -2.6 | 9.7 | 31% | x | 1 | -20
S=C(NN=C(C1CC1)C1CC1)Nc1ccccc1 | 1.2 | u | -4.8 | u | 97* | -5 | -15

# (list continues)
SMILES,HNF4A DNA FP,RanGTP-Imp inh,LANA-H2A inh,Vif TR-FRET,ALR H2O2 inh,Beta2AR agonist,Calb FLC
COc1ccc([N+](=O)[O-])cc1N(CC(=O)N(C)C)S(C)(=O)=O,4.3,-4.0,-2.6,3%,-3,4,18
N=c1n(CCOc2ccccc2)c2ccccc2n1CCN1CCOCC1,-0.5,3.5,-2.6,0%,x,-7,-4
O=C(O)CCC(=O)N1CCC(n2nnc3cc(C(F)(F)F)ccc32)CC1,-3.9,6.1,-0.5,29%,x,-4,5
CC1(CCc2ccccc2)NC(=O)N(CC(=O)Nc2ccc(OC(F)F)cc2)C1=O (stereo not given),0.9,x,-0.5,x,-6,-3,x
C/C(=N\NC(=O)Cc1c(C)[nH][nH]c1=O)c1ccc(Cl)c(Cl)c1,-0.1,-1.5,3.4,1%,18,-1,3
CC(C)(C)NC(=O)CSc1ccc(C(C)(C)C)cc1,2.0,-1.3,1.7,-3%,-8,4,13
O=C(NNc1ccccc1)C(=O)NNS(=O)(=O)c1ccc([N+](=O)[O-])cc1,-6.3,3.7,0.2,6%,98*,4,-20
CC1CCN(c2c(NCc3ccc(C(=O)NCc4ccccc4)cc3)c(=O)c2=O)CC1,1.5,-1.3,-1.6,8%,7,-1,-1
O=c1c2c(nc3c(-c4cccc(Br)c4)c[nH]n13)CCCC2,1.4,-3.7,-2.4,-7%,24,-2,-4
CCCSc1oc(-c2ccco2)nc1S(=O)(=O)c1ccc(C)cc1,-1.7,7.8,1.0,x,-27,-9,1
CCCCCn1c(=O)c(-c2nc3ccccc3c(=O)[nH]2)c(O)c2ccccc21,x,-2.1,x,-2%,x,x,0
CCCCN(CCCNC(=O)c1ccc(CS(=O)(=O)c2ccc(OC)cc2)o1)Cc1ccccc1,-3.9,2.5,-4.6,-4%,-48,0,-4
COCCCNC(=O)CNC(=S)N(Cc1ccc(F)cc1)C1CCCCC1,0.5,-1.9,30*,33%,-6,1,-11
O=C(O)c1c2c(nc3ccccc13)/C(=C/c1c(F)cccc1F)CCC2,0.2,75*,2.7,x,-1,3,2
COc1ccccc1N1CCN(C(=O)C(Cc2ccccc2)NC(=O)C2CCCCC2)CC1 (stereo not given),11,u,-1.5,7%&-15%,16,-1,-2
CN(c1ccccc1C(=O)N1CCN(c2ccccc2F)CC1)S(=O)(=O)c1ccccc1,-4.2,-1.4,2.9,x,-17,8,u
CCOC(=O)c1ccc(NC(=O)CCn2nnc3ccccc32)cc1,-0.8,-0.8,0.4,-3%,-2,-5,3
CCN1CCN(C(=O)C2CCN(S(=O)(=O)c3cc(Cl)ccc3Cl)CC2)CC1,1.9,1.4,1.8,-2%,-5,6,-1
CC12COC3(C(=O)Nc4nccs4)CC1CCC32C (stereo not given),4.5,-1.1,-4.0,2%,x,-6,4
CCCCC(=O)Nc1ccc(NC(=O)C2CC2)nc1,-7.5,-2.6,-2.5,33%,4,-5,6
Cc1cc(OCC(=O)N(C(C)C)C(C)C)cc(C)c1Br,-0.6,0.0,x,25%,x,-3,-5
O=C(Nc1ccccc1Oc1ccsc1C(=O)O)c1ccccc1F,0.5,3.0,98*,1%,x,-4,-3
NS(=O)(=O)c1ccc(NC(=O)CSc2nc3ccccc3nc2N2CCOCC2)cc1,-2.1,2.3,-1.5,x,4,-22,-7
COC(=O)/C(C#N)=C/c1c(Oc2cc(C)cc(C)c2)nc2c(C)cccn2c1=O,-0.9,7.3,-4.1,x,-3,5,4
COc1cccc(CNCC(O)(c2ccc(Cl)cc2)c2ccc(Cl)cc2)c1,-1.1,-3.7,2.5,-5%,-3,9,-19
CCn1cc(C(=O)NCC(=O)OC)c2cc(OC)c(OC)cc2c1=O,-0.9,u,3.2,-3%,-3,-5,5
CCn1c2ccccc2c2cc(CN3CCN(S(=O)(=O)Cc4ccccc4)CC3)ccc21,3.4,-2.5,2.0,u,-12,3,-13
COc1cccc(NC(=O)c2c([N+](=O)[O-])cnn2C)c1,3.6,0.3,0.7,x,96*,-8,-1
c1ccc(CNc2nc3ccccc3n3cnnc23)nc1,1.5,-1.1,1.5,2%,0,-19,4
Cn1c(CN2CCCC2)nc2cc(NC(=O)COc3ccccc3)ccc21,0.4,0.6,-1.5,5%,-9,5,19
CCN(C(=O)CSc1nnc(-c2ccc(OC)cc2)n1C(C)C)C1CCS(=O)(=O)C1 (stereo not given),7.7,x,-1.6,-6%,2,-1,x
O=C(Cc1ccccc1)Nc1ccc(NC(=O)c2cccnc2)cc1,0.2,-2.8,4.1,x,-3,2,5
CCN1C(=O)c2cccc3c(S(=O)(=O)Nc4ccccn4)ccc1c23,-3.6,0.2,-4.6,7%,-28,-8,13
COc1cc(S(=O)(=O)n2cnc(C)c2)ccc1Br,-0.1,4.7,-0.2,29%,-9,-8,3
Cc1ccc(-n2nc3c(=O)n(C(C)C(=O)NCc4ccc5c(c4)OCO5)nc(C)c3c2C)cc1 (stereo not given),-3.3,-2.0,3.4,x,x,-1,-14
Cc1ccc(CC(CC(=O)O)C(=O)NCC23CC4CC(CC(C4)C2)C3)cc1 (stereo not given),-2.8,0.5,-3.8,20%,23,3,10
CC1(C)CC(CC(=O)NC(=S)Nc2ccc([N+](=O)[O-])cc2)C(=O)O1 (stereo not given),-0.7,4.2,2.3,4%,12,5,-7
CC(C)(C)C1CCc2onc(C(=O)Nc3ccc4c(c3)OCO4)c2C1 (stereo not given),-1.2,2.1,4.0,x,x,-5,-7
O=C(O)c1cnn2c(-c3ccccc3)ccnc12,-3.6,-1.2,-1.5,x,-1,-2,-10
CC1(c2nnc(-c3ccc(F)cc3)o2)CC(c2ccc(F)cc2)=NO1 (stereo not given),-1.8,1.4,-2.8,6%,-3,-8,13
O=C(Cn1c(=O)c2cccn2c2ccc(F)cc21)NCCCN1CCN(c2ccccc2F)CC1,1.6,3.4,3.4,x,-1,-2,-13
c1cc(C(c2nnnn2C2CCCC2)N2CCOCC2)ccn1 (stereo not given),0.0,u,-6.1,28%,-25,-6,4

# Gathered by group: the entries above with a COOH group (8)
SMILES,HNF4A DNA FP,RanGTP-Imp inh,LANA-H2A inh,Vif TR-FRET,ALR H2O2 inh,Beta2AR agonist,Calb FLC
CC[C@@H](C)[C@@H](C(=O)N1CCN(C(=O)OC(C)(C)C)CC1)n1cc(CCC(=O)O)nn1,2.7,-3.2,-3.7,11%,-7,-2,3
COc1ccc(/C=N/NC(=O)c2[nH]c3ccc(Cl)cc3c2-c2ccccc2)c(C(=O)O)c1OC,-2.0,-1.7,3.8,-12%,98*,-6,20
C=CCSC1=N/C(=C\c2ccc(C(=O)O)cc2)C(=O)S1,-1.1,6.7,11,-16%,7,-5,-7
O=C(O)CCC(=O)N1CCC(n2nnc3cc(C(F)(F)F)ccc32)CC1,-3.9,6.1,-0.5,29%,x,-4,5
O=C(O)c1c2c(nc3ccccc13)/C(=C/c1c(F)cccc1F)CCC2,0.2,75*,2.7,x,-1,3,2
O=C(Nc1ccccc1Oc1ccsc1C(=O)O)c1ccccc1F,0.5,3.0,98*,1%,x,-4,-3
Cc1ccc(CC(CC(=O)O)C(=O)NCC23CC4CC(CC(C4)C2)C3)cc1 (stereo not given),-2.8,0.5,-3.8,20%,23,3,10
O=C(O)c1cnn2c(-c3ccccc3)ccnc12,-3.6,-1.2,-1.5,x,-1,-2,-10
